PINK1 expr mod – changes PINK1 expression; PINK1 immunofluorescence, high-content cytometry, 24 h; Potency, µM (doses to about 76.6 µM), for the others: at the top dose activation (PINK1 increase), most hits filed as activators; hit rate 0.2% among 410,000; active = well fitted activation curve with a large enough effect; inconclusive = small, poorly fitted or top-dose-only effect; inactive = flat fitted curve, though single readings scatter; cell line not stated here;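 further: % of control where 0% means no effect; nearly all actives have a fitted effect of over 65% in size; a mitochondrial uncoupler was the plate control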
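Readout is PINK1 immunofluorescence, quantified alongside mitochondrial, cell and nuclear markers by laser-scanning microplate cytometry. Cells from a stable line were exposed to compound titrations (5 concentrations) for 24 hours, with CCCP controls.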
ClpP mod – qHTS Assay for Activators of ClpP; ATP-dependent Clp protease proteolytic subunit (Bacillus subtilis (strain 168)), P80244; hit rate 1.9% among 340,000; purified B. subtilis ClpP, FRET peptide cleavage, 20 min; Potency, µM (titrated, usually from 57.5 µM), for inactives: top-dose activity change, negative = active; active = well fitted falling curve with a large enough effect; inconclusive = small, poorly fitted or top-dose-only effect; inactive = no such curve, though single readings can be large or run the other way; further: the source files actives as falling curves though it sought activators and does not explain the sign; nearly all actives have a fitted effect of over 65% in size; many hits overshoot -100%
Target sequence (P80244 whole entry, looked up): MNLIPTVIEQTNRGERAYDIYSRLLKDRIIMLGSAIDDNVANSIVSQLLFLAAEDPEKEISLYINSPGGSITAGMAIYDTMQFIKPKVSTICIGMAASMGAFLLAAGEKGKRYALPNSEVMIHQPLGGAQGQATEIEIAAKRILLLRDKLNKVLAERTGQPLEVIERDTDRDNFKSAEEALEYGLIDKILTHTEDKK
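Purified B. subtilis ClpP, 10 microg/mL final in Tris/HCl pH8 with KCl, BSA, glycerol and Tween-20, cleaved an Abz/nitrotyrosine-quenched decapeptide. Fluorescence (ex 320, em 430) was read at 0 and 20 min at room temperature. Delta was normalized to 5.8 microM ADEP and DMSO/no-enzyme controls.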
Active calls of the source: *; ? = inconclusive; & = joins results of further samples. Potency means the concentration at half of the fitted maximal effect.

SMILES | PINK1 expr mod | ClpP mod
O=C(CSc1nncn2c1cc1occc12)Nc1ccc(F)c(Cl)c1 | 8.8% | -14%
Nc1c(C(=O)Nc2ccc(F)c(F)c2)sc2nc(-c3ccncc3)ccc12 | 0.9% | 1.1%
CCOC(=O)[C@]12CCC=C1N(CCC1=CCCCC1)C(=O)[C@H](CC(=O)NCc1ccc(OC)c(OC)c1)C2 | -0.3% | 0.5%
COc1cccc(NC(=O)CSc2nc(=O)n(Cc3cccnc3)c3c2CCC3)c1 | 0.3% | -4.7%
COc1ccc(-c2cc(C(F)(F)F)nc(SCCC(=O)Nc3ccc(F)cc3F)n2)cc1 | 12% | ?
COC(=O)C(CCSC)NC(=O)c1cc2c(n(-c3ccc(OC)cc3)c1=O)CC(C)(C)CC2=O (stereo not given) | 0.0% | -9.0%
Cc1ccc(C)c(NC(=O)Cn2c(=O)n(CC(=O)NCCc3ccccc3)c(=O)c3ccccc32)c1 | 1.2% | 0.1%
COc1ccc2nc(NC(=O)c3cc(=O)c4cc(C)c(C)cc4o3)sc2c1 | 1.1% | -0.4%
O=C(Cn1c2ncccc2c(=O)n1-c1ccccc1)NCc1ccccc1Cl | 0.7% | 3.5%
COc1ccccc1CNC(=O)c1ccc(CS(=O)c2ccccc2Cl)o1 (stereo not given) | 0.0% | -0.7%
CCOc1ccc(-c2nnc(SCC(=O)Nc3cccc(OC)c3)nc2-c2ccc(OCC)cc2)cc1 | -1.0% | -1.2%
Cc1ccc(NS(=O)(=O)c2ccc3[nH]c4c(c3c2)CCCCCC4)cc1Cl | -2.2% | ?
Cc1cccc(C)c1NC(=O)c1nc(S(C)(=O)=O)ncc1N(Cc1ccc(C(C)(C)C)cc1)Cc1ccco1 | 0.6% | -9.9%
Cc1ccccc1OCC(=O)NCC(=O)OC(c1ccccc1)c1ccccc1 | 0.7% | -5.1%
Cc1cccc(C)c1NC(=O)Cn1c(=O)n(Cc2ccccc2)c(=O)c2c(C)c(C(=O)N(C)C)sc21 | 0.2% | -5.3%
COc1ccc2c(Sc3ccc(C)cc3)c(C(=O)NCCc3ccccc3)[nH]c2c1 | 2.1% | -3.0%
Cc1ccc(S(=O)(=O)n2nc(-c3ccccc3)nc2NCc2ccc(Cl)cc2)cc1 | -1.0% | -1.9%
CCOC(=O)c1ccc(Nc2c(-c3ccc(O)cc3)nc3nc[nH]n23)cc1 | -0.5% | -4.0%
COCCn1c(C)cc(O)c(C(c2ccccc2Cl)N2CCCCC2)c1=O (stereo not given) | 1.3% | 1.0%
CN(C)CCN1CCN(C2CN(Cc3cn(Cc4ccc(F)cc4)nn3)S(=O)(=O)C2)CC1 (stereo not given) | -1.1% | -3.3%
COC(=O)c1ccc2nc(-c3ccc(Cl)cc3)c(Cc3cccc(Cl)c3)n2c1 | 2.2% | ?
COCCCNc1oc(/C=C/c2cc(OC)c(OC)c(OC)c2)nc1C#N | 2.8% | 4.7%
CCOC(=O)C1CCCN(c2c(C(=O)c3ccc(OCC)cc3)cnc3ccccc23)C1 (stereo not given) | -0.4% | -0.6%
COC(=O)c1ccc2nc(-c3cccc(Cl)c3)c(Cc3ccccc3)n2c1 | ? | -26%
O=C(O)Cc1sc(Nc2ccc(C(=O)O)cc2)nc1-c1ccccc1 | 0.7% | -7.6%

Part of the list above, set out differently:
> CN(C)CCN1CCN(C2CN(Cc3cn(Cc4ccc(F)cc4)nn3)S(=O)(=O)C2)CC1 (stereo not given)
  PINK1 expr mod = -1.1%
  ClpP mod = -3.3%
> COC(=O)c1ccc2nc(-c3ccc(Cl)cc3)c(Cc3cccc(Cl)c3)n2c1
  PINK1 expr mod = 2.2%
  ClpP mod = ?
> COCCCNc1oc(/C=C/c2cc(OC)c(OC)c(OC)c2)nc1C#N
  PINK1 expr mod = 2.8%
  ClpP mod = 4.7%
> CCOC(=O)C1CCCN(c2c(C(=O)c3ccc(OCC)cc3)cnc3ccccc23)C1 (stereo not given)
  PINK1 expr mod = -0.4%
  ClpP mod = -0.6%

The list goes on:
SMILES | PINK1 expr mod | ClpP mod
Cc1ccc(-n2c(SCc3cccc(F)c3)nc3[nH]ncc3c2=O)cc1C | -0.4% | 1.5%
O=C(Nc1ccc(F)cc1Cl)C1CCN(c2ncnc3c2nc2n3CCCCC2)CC1 | 5.4% | -0.4%
CCCCNC(=O)C1CCCN(c2nnc(C)c3c(C)n(-c4ccc(Cl)cc4)nc23)C1 (stereo not given) | -0.5% | -6.0%
CC(=O)Nc1cccc(NC(=O)Cn2cnc3c2c(=O)n(C)c(=O)n3C)c1 | 0.6% | 1.6%
CCC(=O)N1Cc2cc(C(=O)NCC(F)(F)F)nc(-c3cccc(-c4cncnc4)c3)c2[C@H]1CCO | 0.3% | 0.4%
O=S(=O)(NCC(c1ccccc1)N1CCc2ccccc21)c1ccc(Cl)cc1 (stereo not given) | ? | -7.2%
COc1cc(C(=O)N(Cc2ccc(C(C)C)cc2)C2CCS(=O)(=O)C2)cc(OC)c1OC (stereo not given) | -1.6% | 0.6%
CSc1nc(NCCOC(C)=O)c(C#N)c(-c2ccc(C(C)(C)C)cc2)n1 | 0.2% | -2.2%
COc1ccccc1N1CCN(C(=O)c2nc(-c3ccc(C)cc3)n3c2CCCCC3)CC1 | 0.2% | 1.0%
COC1(C(F)(F)F)NC(=O)N(c2ccc(F)cc2)C1=O (stereo not given) | 2.1% | -0.4%
CCOCCCNC(=O)c1cc2c(-c3ccc(OC)c(OC)c3)nn(C)c2s1 | 0.2% | 3.6%
CCOC(=O)[C@]12CCC=C1N(Cc1ccc(Cl)cc1Cl)C(=O)[C@H](CC(=O)N1CCCCC1)C2 | 2.2% | -1.0%
Cc1ccc(-c2cc(-c3coc4ccccc4c3=O)c3c(n2)-c2cc(Cl)ccc2OC3)cc1 | 0.0% | -1.4%
CCC(=O)Oc1cc(C(C)(C)C)cc2cc(-c3nc(-c4ccc(OC)cc4OC)no3)c(=O)oc12 | 1.3% | 24%
CCOC(=O)c1c(S(=O)(=O)N2CCCC(C(=O)NCc3ccccc3Cl)C2)c(C)n(C)c1C (stereo not given) | 1.3% | -0.8%
O=C(Oc1ccccc1F)c1nc(SCc2ccccc2F)ncc1Cl | 3.9% | -1.2%
Cc1cc(N2CCN(C(c3ccnc4ccccc34)c3nnnn3-c3c(C)cccc3C)CC2)c2ccccc2n1 (stereo not given) | 1.2% | ?
O=C(NC1CC(=O)N(c2ccccc2)C1)c1cc2ccccc2o1 (stereo not given) | 0.1% | -5.4%
Cc1ccc(C)c(NC(=O)n2ncc3cc(Cl)ccc32)c1 | -1.4% | 0.1%
COc1ccc(CN2C(=O)CCC2(C)c2nnnn2-c2ccc3c(c2)OCCO3)cc1 (stereo not given) | -0.7% | 2.0%
COc1ccc(-c2cc(C(=O)Oc3ccc(C)c(C)c3)c3ccccc3n2)cc1 | -0.3% | 4.5%
Cc1ccc(CN2CCSc3ccc(C(=O)NCc4ccc(OC(C)C)cc4)cc32)cc1 | 1.9% | 4.2%
Clc1cccc(-n2ncc3c(N4CCC(Cc5ccccc5)CC4)ncnc32)c1 | 0.1% | -0.8%
COc1ccc(NC(=O)CC2NCCNC2=O)c(OC)c1 (stereo not given) | 1.0% | -1.5%
COc1ccc(-n2ncc3c(N4CCN(c5cccc(C)c5)C(C)C4)ncnc32)cc1 (stereo not given) | 0.1% | -24%
Remaining list, next part
SMILES | PINK1 expr mod | ClpP mod
Cc1sc(NC(=O)C2c3ccccc3Oc3ccccc32)c(C(=O)OC(C)C)c1C | 2.9% | -18%
O=C(c1ccc(F)cc1)n1nc(-c2cccnc2)nc1NCc1ccc(F)cc1 | -0.8% | -2.1%
CCCNC(=O)c1ccc(Cn2c(=O)c3cccn3c3cccnc32)cc1 | -0.6% | -11%
Cc1cccc(C)c1NC(=O)CCCN1C(=O)CCn2nc(-c3cn(C)c4ccccc34)cc21 | 2.0% | -8.5%
Cc1ccc(OCc2nc(-c3ccc(C(=O)N4CCN(c5ccc(Cl)cc5)CC4)cc3)oc2C)cc1 | 0.9% | -3.9%
COc1cccc(CNC(=O)C(NS(=O)(=O)c2ccc3nc(C)sc3c2)C(C)C)c1 (stereo not given) | 0.2% | -1.6%
Cc1ccc(OCC(=O)Nc2cc(-c3nc4ccccc4[nH]3)ccc2C)c(C)c1 | -0.9% | ?
CCn1cc(S(=O)(=O)c2ccccc2)c(=O)c2cc(F)c(N3CCCC3)cc21 | -0.2% | 25µM*
COC(=O)[C@]12CCCCC=C1N(Cc1ccc(Cl)cc1Cl)C(=O)[C@H](CC(=O)NCc1ccc(OC)c(OC)c1)C2 | 3.3% | 0.4%
COc1cccc(-n2c(=O)c3c4c(sc3n(Cc3ccc(C)cc3)c2=O)CCCC4)c1 | -0.4% | -3.3%
Cc1cc(C)c2c(CC(=O)N(Cc3ccc(N(C)C)cc3)Cc3ccco3)coc2c1 | 0.4% | -17%
CN(C(=O)NCc1noc2ccccc12)c1cccc(Cl)c1 | -0.9% | 121%
COc1cccc(CNC(=O)C2CCN(Cc3cc4ccccc4n3Cc3ccc(C)cc3)CC2)c1 | 2.1% | -13%
Cc1c(C(=O)OC2CCCCCC2)[nH]c2c1C(=O)CC(c1ccc(Cl)cc1)C2 (stereo not given) | -1.0% | -1.3%
Cc1ccc(S(=O)(=O)N2CCN(c3nc(-c4cccs4)nc4ccccc34)CC2)cc1 | 0.9%&0.5%&-0.1%&0.0% | 3.4%&4.5%&3.8%
O=C(Cn1cc(SCc2ccccc2)c2ccccc21)N1CCCCC1 | 1.6% | 0.0%
CN1CCN(C(=O)c2ccc(NC(=O)c3ccc(Br)o3)cc2)CC1 | 1.3% | 1.1%
COc1cccc(CNC(=O)Cn2c(=O)cc(C(F)(F)F)c3c(C)nn(C)c32)c1OC | 1.7% | -17%
COc1ccc(-c2nn3c(-c4ccccc4)nnc3c3ccccc23)cc1 | -0.4% | -6.6%
Cc1ccc(NC(=O)Cn2c(=O)n(CCCCC(=O)NCCc3ccccc3)c(=O)c3ccccc32)c(C)c1 | 6.0% | -0.4%
Cc1cc(Br)ccc1NC(=O)C1CCCN(S(=O)(=O)c2cccc3nonc23)C1 (stereo not given) | 4.5% | 0.5%
COc1ccc(-c2cnc(C)o2)cc1S(=O)(=O)Nc1ccc(F)cc1F | -1.1% | -0.7%
COC(=O)c1ccc(OCC2c3cc(OC)c(OC)cc3CCN2C(=O)c2ccc(F)cc2)cc1 (stereo not given) | ? | 0.6%
COc1ccc(NC(=O)Cn2nnc(-c3nc(-c4ccncc4)no3)c2N)cc1OC | 0.5% | -1.2%
CCN(N=O)c1ccc(/C=C2\C=Cc3ccccc32)cc1 | 1.6% | 0.0%

Some of these compounds in order of the PINK1 expr mod value, low to high:
Structure	PINK1 expr mod
CCOC(=O)c1ccc(Nc2c(-c3ccc(O)cc3)nc3nc[nH]n23)cc1	-0.5%
CCOC(=O)[C@]12CCC=C1N(CCC1=CCCCC1)C(=O)[C@H](CC(=O)NCc1ccc(OC)c(OC)c1)C2	-0.3%
Cc1cccc(C)c1NC(=O)CCCN1C(=O)CCn2nc(-c3cn(C)c4ccccc34)cc21	2.0%

Next part.
SMILES | PINK1 expr mod | ClpP mod
Cc1ccc(S(=O)(=O)n2nc(-c3ccccc3)nc2NCc2ccccc2Cl)cc1 | 4.3% | -0.9%
CC(C)(C)C1CCN2CCCC(c3ccccc3)(C1)C2=O (stereo not given) | -0.6% | 0.3%
CN(Cc1ccccc1)C(=O)c1c[nH]c2ccc(S(=O)(=O)Nc3ccccc3F)cc2c1=O | -0.4% | -22%
COc1cccc(-c2nnc3n(CCc4ccccc4)c(=O)c4ccccc4n23)c1O | -1.6% | -6.1%
Cc1ccc(CNC(=O)c2nn(-c3ccc(Cl)cc3)nc2CO)cc1 | 2.8% | 25µM*
Cc1ccc(C)c(N2CCN(C(=O)c3ccc(NC(=O)c4nsc5ccccc45)cc3)CC2)c1 | 0.9% | -0.8%
CN1C(=O)C2(c3ccccc31)N(c1cccc(F)c1)C(=O)CS2(=O)=O (stereo not given) | -4.3% | 0.2%
Cc1cccc(C)c1NC(=O)Cn1nnc(C(=O)NCc2ccc(F)cc2)c1N | ? | 2.2%
CCOc1ccc(C2CC(=O)Nc3cc4c(cc32)OCO4)cc1OC (stereo not given) | 2.2% | -0.4%
COc1cccc(NC(=O)Nc2cc(-c3cn4cccnc4n3)ccc2OC)c1 | 2.7% | -22%
COc1ccc(C2=CC(c3ccccc3F)n3ncc(C(=O)Nc4ccc(C)cc4)c3N2)cc1 (stereo not given) | -0.6% | 0.2%
Cc1ccc(CNC(=O)Cn2cc(S(=O)(=O)Cc3ccccc3F)c3ccccc32)cc1 | 0.0% | 5.1%
Cc1cccc(N2CCN(C(=O)c3cc4ccc5cccnc5c4[nH]3)CC2)c1C | -1.9% | -8.7%
O=C1CS(=O)(=O)C2(C(=O)N(Cc3ccccc3Cl)c3ccccc32)N1c1ccc(F)cc1 (stereo not given) | -1.1% | 0.1%

Pulled one by one from the entries so far (2):
SMILES | PINK1 expr mod | ClpP mod
CCOc1ccc(-c2nnc(SCC(=O)Nc3cccc(OC)c3)nc2-c2ccc(OCC)cc2)cc1 | -1.0% | -1.2%
COc1ccc(C2=CC(c3ccccc3F)n3ncc(C(=O)Nc4ccc(C)cc4)c3N2)cc1 (stereo not given) | -0.6% | 0.2%

Assay outcomes: PubChem, National Center for Advancing Translational Sciences (NCATS)

An excerpt (hit frequency here may not be typical).
